High-throughput results deposited in PubChem by Fisher Drug Discovery Resource Center.
NPYLR7 ag = activates Aedes aegypti NPYLR7 receptor; activation, % at 10 µM; HEK293T NPYLR7/Galpha15, GCaMP6s calcium fluorescence; actives 0.15% (n = 270,000); in the data active = activation above about 40%;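 note: 0% = vehicle and 100% = reference agonist at the receptor; some compounds past the cut are filed as inactive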
NPYLR7 ag max-min = further read-out of NPYLR7 ag, marked with its call; activation, %; measured here: Max-Min RFU normalised activation; some inactives read as strong as hits;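 span of the calcium signal over five minutes; 0% = vehicle and 100% = native peptide agonist; compound fluorescence can raise it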
The depositor's hits bear a star.

Compound | NPYLR7 ag | NPYLR7 ag max-min
O=C(NCCN1CCCOC1=O)C1CCN(Cc2ccco2)CC1 | -4 | -5
COc1ccc(OC)c2c(=S)c3ccccc3[nH]c12 | -14 | -19
O=C(C1CCCN(C2CCN(S(=O)(=O)c3cccs3)CC2)C1)N1CCCC1 (centres undefined) | 3 | 1
COc1cccc(C(CN2CCN(C(=O)c3ccco3)CC2)OCc2cccc(Cl)c2)c1 (centres undefined) | 7 | -3
CNC(=O)CSCc1ccc(OC)cc1Cl | 2 | -1
CSc1ccccc1NC(=O)Cc1cc(-c2cc3ccccc3o2)on1 | 7 | 10
CC(Nc1ccc2oc(C(C)C)nc2c1)C(=O)N(C)C1CCS(=O)(=O)C1 (centres undefined) | 8 | 6
CCOCCCNC(=O)c1cc(NC(=O)c2ccc(Br)cc2)ccc1N1CCN(c2ccccc2OC)CC1 | 11 | 15
COc1ccc(CCN(C)c2cc(Cl)nc(SCc3cccc(C(=O)NCc4ccc(F)cc4)c3)n2)cc1OC | -8 | 1
Cc1cc2nn(CN3CCCC(C)C3)c(=S)n2c2ccccc12 (centres undefined) | -6 | -8
Cc1ccc(C(=O)Oc2cc(C)[nH]c(=O)c2[N+](=O)[O-])cc1 | 12 | 7
c1ccc2c(c1)OCC(c1nn3c(CN4CCOCC4)nnc3s1)O2 (centres undefined) | -4 | -14

(list continues)
Compound | NPYLR7 ag | NPYLR7 ag max-min
O=S1(=O)CC2SC(=S)N(c3cccc(Br)c3)C2C1 (centres undefined) | 2 | -2
CC(C)c1cc(N(C)Cc2nc(N)nc(N(C)C)n2)n[nH]1 | -3 | 20
CCOC(=O)c1c(N=CN(C)C)sc(C)c1C | -15 | -23
Cc1cc(C)n(CCc2c(-c3ccccc3)ncn2C[C@H]2CCCN2)n1 | 18 | 8
N#CCSc1nc2ccc(Br)cc2c2nc3ccccc3n12 | 19 | 9
Cc1ccn2c(=O)cc(CSc3nnnn3C3CC3)nc2c1 | 8 | 7
COc1ccc(N(C)S(=O)(=O)c2ccc(OC)c(N3CCN(S(=O)(=O)c4cccc([N+](=O)[O-])c4)CC3)c2)cc1 | 5 | 8
O=C(Cn1cnc2ccccc2c1=O)Nc1cc2c(cc1Cl)OCCO2 | 8 | 2
CCc1nn(-c2ccc(Cl)cc2)c(CC)c1C(=O)NCC1CCCO1 (centres undefined) | 12 | 9
CCc1nn(-c2ccccc2)c(NC(=O)CSCc2nc(C)no2)c1C | -1 | -3
COc1ccc(NC(=O)c2cn(Cc3ccccc3)nc2OCc2ccccc2)cc1OC | 9 | 0
O=C(CC1(CC(=O)N2CCC3(CC2)C(=O)NCN3c2ccccc2)CCCC1)N1CCC2(CC1)C(=O)NCN2c1ccccc1 | 1 | -4

(listing goes on)
Compound | NPYLR7 ag | NPYLR7 ag max-min
COc1cc(Cn2cnc(-c3ccccc3)c2-c2nc[nH]c2C)ccc1O | 17 | 2
COCCCN(CC(=O)N(CCc1c[nH]c2ccccc12)Cc1ccc(C(C)(C)C)cc1)C(=O)C1CC1 | 2 | 4
Cc1csc(SCC(=O)N2CCC(Cc3cccc(C(N)=O)c3)C2)n1 (centres undefined) | 5 | 5
CN1CCN(Cc2ccc(-c3cccc(Cl)c3)o2)CC1CCO (centres undefined) | 3 | 1
Cc1c(Cl)c([N+](=O)[O-])nn1CC(=O)NN(C)c1ccc(C(F)(F)F)cc1[N+](=O)[O-] | -16 | -20
CC(=O)c1ccc(S(=O)(=O)N(C)CC(=O)NCc2ccc(C)cc2)cc1 | 2 | -1
c1ccc(-c2nnc(CSCc3noc4c3CCCC4)o2)cc1 | -1 | 6
Cc1cccc(C)c1OCC(=O)NCc1ccc(C(=O)O)cc1 | 0 | 7
CCOc1cccc2c1OC[C@@H]1CN(CC)C(=O)CCN[C@H]21 | 3 | 6
Nc1c2c(nn1-c1c(Cl)cc(Cl)cc1Cl)CCCn1c-2nc2ccccc2c1=O | -12 | -12
COc1cc(-c2cc(C(=O)O)c3[nH]c(C)nc3n2)cc(OC)c1OC | 13 | 7
CCc1nc2c(OCCOc3ccc(F)cc3)cccn2c1N(C=O)Cc1ccc(OC)cc1 | -2 | -1

(more compounds)
Compound | NPYLR7 ag | NPYLR7 ag max-min
CCOC(=O)CNC(=O)Nc1ccc(N2CCN(c3ccccc3OC)CC2)c(C(=O)NCCOC)c1 | -2 | 7
COc1ccc(C(=O)N2CCN(c3cc(Cl)nc(SCC(=O)Nc4ccc(F)cc4)n3)CC2C)cc1 (centres undefined) | 18 | 21
CCN(Cc1nccn1Cc1ccccc1C(F)(F)F)C(=O)c1cccs1 | -12 | -4
Cc1nc2nc(-c3ccccc3)cc(C(=O)O)c2[nH]1 | -2 | -3
CCOc1ccccc1NC(=O)N1CCc2ccccc2C1c1ccccc1Cl (centres undefined) | -2 | 3
O=Cc1ccc(-c2ccc(Cl)cc2Cl)[nH]1 | 1 | 1
C#CCSc1nnc(-c2ccccc2)c(=O)[nH]1 | 8 | 1
CCOCCCn1c(SCc2cc(OC)c(OC)cc2F)nc2cc(S(=O)(=O)N3CCOCC3)ccc21 | 25 | 11
Cc1[nH]c(=O)sc1C(=O)NCc1cccc(C(F)(F)F)c1 | 10 | 5
Cc1ccccc1-c1cnnc(NCC2CCCCO2)n1 (centres undefined) | -3 | -5
CCCCn1nc(C)c(C(=O)NCc2ccc(Cl)s2)c1Cl | -1 | 1
CC(C)c1nnsc1C(=O)N1CCC2(CCN(C)CC2)C1 | -3 | -3

The list goes on.
Compound | NPYLR7 ag | NPYLR7 ag max-min
N#CC1C(=N)SC(=N)C(C#N)C1c1ccc(Cl)cc1 (centres undefined) | 10 | 8
COc1ccc(OC)c(NC(=O)N(C)C2CCC3(CC2)OCC(C)(C)CO3)c1 | -7 | -9
C=CCCC(O)CN(Cc1ccc(F)cc1)Cc1ccsc1 (centres undefined) | 16 | 16
CCC(=O)Nc1cc2c(cc1OC)NC(=O)CC2c1ccc2cccc(O)c2n1 (centres undefined) | -3 | -5
COc1ccc(CC(=O)OCc2cc(-c3cc4ccccc4o3)on2)cc1OC | 0 | 0
CCN1CCc2cc(OC)c(OC)cc2C1C(C)NC(=S)NC(C)C (centres undefined) | 16 | 22
CCCCn1c(C2CC(=O)N(c3ccc(OCC)cc3)C2)nc2ccccc21 (centres undefined) | -2 | 0
COc1ccc(Br)c(C(=O)Nc2cc(C(=O)NCc3cccc(Cl)c3)ccc2N2CC3CC(C2)c2cccc(=O)n2C3)c1 (centres undefined) | -6 | 0
CC(C)=NOC(C)C(=O)N1CCC2(CCCc3ccccc32)C1 (centres undefined) | 4 | 4
Cc1ccccc1NC(=O)CCNC(=O)C1COc2ccccc2O1 (centres undefined) | 4 | 4
Cc1ccc(S(=O)(=O)Nc2ccsc2C(N)=O)c(F)c1 | 16 | -1
CCNC(=O)N1CCN(C(C(=O)N(C)CC)C2CCCC2)CC1 (centres undefined) | 12 | 13

Next part.
Compound | NPYLR7 ag | NPYLR7 ag max-min
C=CCn1cc(-c2nc3c([nH]2)c(-c2cccnc2)nn3C)c(C)n1 | 6 | 2
Cc1cccc(C(=O)N(Cc2csc(COc3cccc(Cl)c3)n2)C(C)C)c1 | -4 | 5
CC1(C(=O)N2CCCCC2)CCN1C(=O)CCc1ccccc1 (centres undefined) | -1 | -2
CCOC(=O)C1(Cc2cccc(F)c2)CCN(Cc2cn(CC)nc2C)CC1 | 12 | 14
CCN1C(=O)C(=C2C=C(C)N(CCO)C(C)=C2)C(=O)N(CC)C1=S | 3 | 6
COc1ccc2cc(CCNC(=O)C3c4ccccc4Oc4ccccc43)c(=O)[nH]c2c1 | 0 | 11
O=C(CSc1ccncc1)Nc1ccc(Cl)cc1C(=O)NC1CC1 | 4 | -2
OCc1ccc(-c2nccn2CC2COCCO2)o1 (centres undefined) | 4 | 1
COc1ccc(NC(=O)C2CC(=O)N(C)C(=Nc3cccc(C(F)(F)F)c3)S2)cc1 (centres undefined) | 4 | 3
O=C(CN1CCOC1=O)N1CCN(c2ccccc2F)CC1 | 19 | 9
CCOC(=O)CSc1nc2c([nH]c3ccccc32)c(=O)n1-c1cccc(OC)c1 | -1 | 43
COc1ccc(CCNC(=O)c2cc(Br)ccc2NS(=O)(=O)c2cc(Cl)ccc2OC)cc1 | 16 | 14

(next part)
Compound | NPYLR7 ag | NPYLR7 ag max-min
COC(=O)c1cc(C(=O)OC)c(C(=O)OC)nc1C(=O)OC | -2 | -3
COC(=O)COc1ccccc1CN | 6 | 7
CCn1ccc(-c2c(-c3ccccc3)ncn2C(c2nccn2C)C2CC2)n1 (centres undefined) | 1 | -1
CC(C)CN(CC(=O)Nc1nc(CC(=O)NCc2cccc(C(F)(F)F)c2)cs1)C(=O)c1ccc(Cl)cc1 | -5 | -6
Cc1nc(NCCNC(=O)c2cccc(Cl)c2)cc(N2CCCC2)n1 | 5 | 4
CN(C)c1nc(CNC(=O)C2(c3ccccc3F)CC2)cs1 | 14 | 3
CCn1cc(C(=O)Nc2cc(C)cc(C)c2)c2nn(-c3ccccc3)c(=O)c-2c1 | 1 | -1
CCN(Cc1ccc(N(C)C)cc1)C(=O)C1CCN(C(=O)Nc2ccccc2)CC1 | 22 | 22
Cc1c(C(=O)NCc2ccccc2)c(C(F)(F)F)nn1C1CCCN(C)C1 (centres undefined) | 13 | 5
Cn1ccnc1SCc1cc(=O)c(OC(=O)c2cc(Cl)ccc2[N+](=O)[O-])co1 | -4 | -5
O=C(N1CCN(c2ncccn2)CC1)C1(S(=O)(=O)c2ccc(Cl)cc2)CCCC1 | 3 | 1
Cc1nn(-c2ccccc2)cc1C(=O)NCCC(=O)N1CCCCC1 | -4 | -4

Exported with values under each structure: part of the list above
Below each compound: NPYLR7 ag, NPYLR7 ag max-min
- C=CCn1cc(-c2nc3c([nH]2)c(-c2cccnc2)nn3C)c(C)n1
  6, 2
- Cc1ccccc1-c1cnnc(NCC2CCCCO2)n1 (centres undefined)
  -3, -5
- CCOC(=O)CNC(=O)Nc1ccc(N2CCN(c3ccccc3OC)CC2)c(C(=O)NCCOC)c1
  -2, 7
- CCOc1ccccc1NC(=O)N1CCc2ccccc2C1c1ccccc1Cl (centres undefined)
  -2, 3
- CC(=O)c1ccc(S(=O)(=O)N(C)CC(=O)NCc2ccc(C)cc2)cc1
  2, -1
- Cn1ccnc1SCc1cc(=O)c(OC(=O)c2cc(Cl)ccc2[N+](=O)[O-])co1
  -4, -5

Next results follow.
Compound | NPYLR7 ag | NPYLR7 ag max-min
COc1ccc(-n2c(SCC(=O)N3CCN(C(=O)c4ccc([N+](=O)[O-])cc4)C(C)C3)nnc2-c2ccco2)cc1 (centres undefined) | 10 | 17
O=C(NCC1CCCO1)C1COC2(CCN(C(=O)C3CC3)CC2)N1C(=O)c1ccccc1 (centres undefined) | 1 | 7
COC1CCCC(C(=O)N2CCC3(CCc4ccccc43)C2)C1 (centres undefined) | -2 | 6
CCN(CC)C(=O)C1CCCN(C(=O)CCc2c(C)nn(-c3ccc(F)cc3F)c2C)C1 (centres undefined) | -2 | -3
COc1ccccc1CNC(=O)c1ccccc1C(F)(F)F | 6 | 4
CCc1csc(CNC(=O)c2ccc(N3CCC(COC)C3)nc2)n1 (centres undefined) | 6 | 3
CCc1nnc(NC(=O)C(C)N2CCC(O)(CN3CCCC3)CC2)s1 (centres undefined) | 17 | 5
CCOc1ccccc1CNC(=O)c1cc(N2CCN(Cc3ccccc3)CC2)nc2ccccc12 | 5 | 0
Cc1c(C(=O)NCc2cccnc2)c(C(F)(F)F)nn1C1CCCN(C)C1 (centres undefined) | 15 | 7
Cc1ccccc1-n1c(C)nnc1SCc1nc(C(=O)N2CCN(c3cccc(Cl)c3)CC2)cs1 | -11 | -1
O=C(c1ccc[nH]c1=O)N1CCC(c2cc(Cc3ccccc3)[nH]n2)CC1 | 21 | 9
CCOC(=O)C1CCN(C(=O)c2nn(-c3ccc(C)c(C)c3)c(=O)n(Cc3ccccc3C)c2=O)CC1 | 10 | 11

Other structures follow:
Compound | NPYLR7 ag | NPYLR7 ag max-min
O=[N+]([O-])c1ccc(-c2nc(C=Nc3nccs3)c(O)o2)cc1 | 5 | -3
N#CCc1cccc(C(=O)NCC(O)c2c(Cl)cccc2Cl)c1 (centres undefined) | -5 | -5
CCOC(=O)C1(CCOc2ccccc2)CCN(C(=O)NCc2ccccc2)CC1 | 5 | 2
Cc1nnc(NC(=O)c2c(O)c3ccccc3[nH]c2=O)s1 | 5 | 4
Cc1nc(N)sc1-c1ccc([N+](=O)[O-])o1 | 2 | -5
Cc1cc(/C=C2\C(=O)NC(=S)N(c3ccc(Cl)cc3)C2=O)c(C)n1-c1cccc([N+](=O)[O-])c1 | -7 | -16
CCOC(=O)C1(Cc2cccc(C(F)(F)F)c2)CCN(C(=O)c2sccc2C)CC1 | 3 | -2
O=c1[nH]cnc2c1ncn2C1O[C@H](CO)[C@@H](O)[C@H]1O (some centres undefined) | -9 | -15
CCOc1ccc(NC(=O)N2CCN(c3nc(-c4cccc(C)c4)nc(C)c3Cc3ccccc3)CC2)cc1 | -2 | 4
C=CCn1c(N)c(C(=O)NCC2CCCO2)sc1=S (centres undefined) | 15 | 7
CNS(=O)(=O)c1ccc2c(c1)N(C(=O)/C=C/c1cccnc1)CC2 | -4 | -7
CCOC(=O)C1(CC2CCCCO2)CCNCC1 (centres undefined) | 7 | 4

Next structures
Compound | NPYLR7 ag | NPYLR7 ag max-min
COc1cccc(OC)c1OCCN1CCC(C(=O)NC(c2ccc3c(c2)OCO3)c2ccccn2)CC1 (centres undefined) | 9 | -4
Cc1ccc(C(=O)Nc2cccc(C(=O)NCC(F)(F)F)c2)c(C)c1 | 16 | 14
COc1cccc(Cc2nsc(Oc3cc(C(=O)N4CCN(Cc5ccc6c(c5)OCO6)CC4)ccc3C)n2)c1 | 22 | 19
COc1cccc(C(C)Sc2nnnn2CCN(C)C)c1 (centres undefined) | 4 | 2
CC(C)=C1C2CCC1C1C(=O)N(NC(=O)COc3ccc(Cl)c(C)c3)C(=O)C21 (centres undefined) | -2 | 0
Cc1oc(-c2ccc3ccccc3c2)nc1CN1CCN(S(N)(=O)=O)CC1 | 10 | 8
CCOC(=O)Nc1sc(N)nc1-c1ccc(Cl)cc1 | -8 | -12
CN(Cc1cccc(Cl)c1)c1ccc([N+](=O)[O-])cc1S(=O)(=O)N1CCOCC1 | 1 | -2
CC1CN(c2cc(Oc3ccc(Cl)cc3)ncn2)CCN1C(=O)C(C)(C)CCl (centres undefined) | 3 | 5

Only part of the results is shown (hit frequency here may not be typical).
